A1 apoptosis 2 = compounds inhibiting A1, read as caspase activation; MEF A1-2A-BIM cells, caspase-Glo luminescence, 3 h; percent of clofoctol response, DMSO zero; caspase activation, % (test concentration not listed); 24,000 tested, under 10 active; AID 2465; in the data active = caspase activation above about 5.9%;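 also: wells of about 30 µL received 50 nL stock; the first replicate is given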
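Material: A1-2A-BIM-expressing MEF cells. Buffer or medium: RPMI-1640 plus 10% FBS. Incubation: cells settled overnight, compound exposure 3 h at 37 °C, 5% CO2. Signal: Caspase-Glo 3/7 luminescence, 1 h at room temperature.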
Numbers without * were called inactive.

SMILES | A1 apoptosis 2
C[C@H](CO)N1C[C@H](C)[C@@H](CN(C)S(=O)(=O)c2cccs2)OCCCC[C@H](C)Oc2ccc(NS(=O)(=O)c3ccccc3)cc2C1=O | 0.4
Cc1noc(C)c1NC(=O)Nc1cccc2c1O[C@H](CN(C)C(=O)Nc1ccc(C(F)(F)F)cc1)[C@H](C)CN([C@H](C)CO)C2=O | 0.0
C[C@H]1CN([C@@H](C)CO)C(=O)Cc2cc(NC(=O)Nc3ccc4c(c3)OCO4)ccc2O[C@@H]1CN(C)Cc1ccc2c(c1)OCO2 | 0.4
C[C@@H]1CN([C@H](C)CO)C(=O)Cc2cc(NC(=O)c3ccncc3)ccc2O[C@@H]1CN(C)C(=O)Nc1ccc(F)cc1 | -0.1
C[C@@H]1CCCCO[C@@H](CN(C)CC2CCCCC2)[C@@H](C)CN([C@H](C)CO)C(=O)c2cc(NC(=O)CCC(F)(F)F)ccc2O1 | -0.3
C[C@H](CO)N1C[C@H](C)[C@H](CN(C)S(=O)(=O)c2ccc(F)cc2)Oc2ccc(NC(=O)c3ccncc3)cc2CC1=O | 0.9
COc1ccc(S(=O)(=O)Nc2ccc3c(c2)CC(=O)N([C@@H](C)CO)C[C@H](C)[C@@H](CN(C)S(=O)(=O)c2ccc(OC)cc2)O3)cc1 | 0.6
C[C@H]1CCCCO[C@@H](CN(C)S(=O)(=O)c2ccc(F)cc2)[C@@H](C)CN([C@@H](C)CO)C(=O)c2cc(NS(=O)(=O)c3ccc(Cl)cc3)ccc2O1 | -0.4
COc1ccc(CN(C)C[C@@H]2Oc3ccc(NC(=O)Nc4ccc(F)cc4)cc3C(=O)N([C@H](C)CO)C[C@@H]2C)cc1 | -0.9
Cc1ccc(S(=O)(=O)Nc2ccc3c(c2)C(=O)N([C@@H](C)CO)C[C@@H](C)[C@H](CN(C)C(=O)Nc2ccccc2)O3)cc1 | 0.2
COCCOC(=O)N1C(=O)[C@@]2(c3cc(C#CCCO)ccc31)[C@H](C(N)=O)[C@H]1C(=O)O[C@H](c3ccccc3)[C@H](c3ccccc3)N1[C@@H]2c1ccccc1OCCO | 1.1
COc1ccc(CN(C)C[C@@H]2OCCCC[C@@H](C)Oc3ccc(NC(=O)Nc4c(C)noc4C)cc3C(=O)N([C@@H](C)CO)C[C@@H]2C)cc1 | -0.3
C[C@@H]1CN([C@@H](C)CO)C(=O)c2cccc(NC(=O)C3CCOCC3)c2O[C@H]1CN(C)Cc1ccc(Cl)c(Cl)c1 | -0.6
CC(C)NC(=O)N(C)C[C@H]1OCCCC[C@H](C)Oc2ccc(NS(=O)(=O)c3ccc(Cl)cc3)cc2C(=O)N([C@@H](C)CO)C[C@H]1C | 0.9
C[C@@H]1CCCCO[C@@H](CN(C)C(=O)NC2CCCCC2)[C@H](C)CN([C@H](C)CO)C(=O)c2cc(NS(=O)(=O)c3ccc(Cl)cc3)ccc2O1 | -0.1
CC(C)NC(=O)N(C)C[C@H]1Oc2ccc(NS(=O)(=O)c3ccc(Cl)cc3)cc2CC(=O)N([C@H](C)CO)C[C@H]1C | -1.6
C[C@H](CO)N1C[C@H](C)[C@H](CN(C)Cc2ccc(Cl)c(Cl)c2)Oc2ccc(NS(=O)(=O)c3cccs3)cc2C1=O | -0.4
C[C@@H]1CN([C@@H](C)CO)C(=O)Cc2cc(NC(=O)c3ccncc3)ccc2O[C@H]1CN(C)Cc1ccccc1 | 1.3
C[C@@H]1CN([C@@H](C)CO)C(=O)c2cc(NC(=O)Nc3ccc(C(F)(F)F)cc3)ccc2O[C@@H]1CN(C)CC1CCCCC1 | 0.5
COc1ccc(NC(=O)N(C)C[C@H]2Oc3ccc(NC(=O)Nc4ccccc4)cc3CC(=O)N([C@H](C)CO)C[C@H]2C)cc1 | -0.7

Single entries from above.
A1 apoptosis 2 with `C[C@@H]1CN([C@H](C)CO)C(=O)Cc2cc(NC(=O)c3ccncc3)ccc2O[C@@H]1CN(C)C(=O)Nc1ccc(F)cc1` : -0.1
A1 apoptosis 2 with `C[C@H](CO)N1C[C@H](C)[C@@H](CN(C)S(=O)(=O)c2cccs2)OCCCC[C@H](C)Oc2ccc(NS(=O)(=O)c3ccccc3)cc2C1=O` : 0.4

Carrying on.
SMILES | A1 apoptosis 2
CC(C)NC(=O)N(C)C[C@@H]1Oc2ncc(-c3cccc(C(F)(F)F)c3)cc2C(=O)N([C@H](C)CO)C[C@@H]1C | -0.1
Cc1ccc(S(=O)(=O)Nc2ccc3c(c2)CC(=O)N([C@H](C)CO)C[C@H](C)[C@@H](CN(C)S(=O)(=O)c2ccccc2)O3)cc1 | 0.7
Cc1noc(C)c1NC(=O)N(C)C[C@H]1Oc2ccc(NS(C)(=O)=O)cc2C(=O)N([C@H](C)CO)C[C@H]1C | -0.6
C[C@H]1CCCCO[C@H](CN(C)C(=O)CCCN(C)C)[C@@H](C)CN([C@@H](C)CO)C(=O)c2cc(NC(=O)Cc3ccccc3)ccc2O1 | 0.0
C[C@@H]1CCCCO[C@H](CN(C)Cc2ccncc2)[C@H](C)CN([C@@H](C)CO)C(=O)c2cc(NC(=O)Nc3cccc4ccccc34)ccc2O1 | 0.2
CNC[C@H]1Oc2ccc(NC(=O)Nc3cccc4ccccc34)cc2CC(=O)N([C@@H](C)CO)C[C@H]1C | 0.0
CC(C)OC(=O)N(C)C[C@H]1OCc2cn(nn2)CCCC(=O)N([C@H](C)CO)C[C@@H]1C | 1.2
Cc1ccc(S(=O)(=O)N(C)C[C@H]2Oc3ccc(NC(=O)Nc4ccccc4)cc3C(=O)N([C@H](C)CO)C[C@@H]2C)cc1 | 0.9
C[C@@H]1CN([C@@H](C)CO)C(=O)Cc2cc(NC(=O)c3ccncc3)ccc2O[C@H]1CN(C)Cc1ccc(Cl)c(Cl)c1 | 1.5
C[C@@H]1CCCCO[C@H](CN(C)Cc2ccc(C(=O)O)cc2)[C@@H](C)CN([C@H](C)CO)C(=O)c2cc(NC(=O)c3ccccc3)ccc2O1 | 0.3
C=CCNC(=O)[C@@H]1[C@H]2C(=O)O[C@H](c3ccccc3)[C@H](c3ccccc3)N2[C@H](c2ccccc2OCCO)[C@@]12C(=O)Nc1ccc(C#CC3(O)CCCCCC3)cc12 | -0.8
Cc1noc(C)c1S(=O)(=O)N(C)C[C@@H]1Oc2ccc(NS(=O)(=O)c3ccc(Cl)cc3)cc2CC(=O)N([C@H](C)CO)C[C@H]1C | 2.0
C[C@@H]1CN([C@@H](C)CO)C(=O)c2cccc(NC(=O)Nc3ccc(F)cc3)c2O[C@H]1CN(C)Cc1ccc(-c2ccccc2)cc1 | -0.7
C[C@H](CO)N1C[C@H](C)[C@H](CN(C)C(=O)Nc2cccc3ccccc23)Oc2c(NC(=O)c3ccncc3)cccc2C1=O | 1.8
C[C@H](CO)N1C[C@H](C)[C@@H](CN(C)C(=O)Nc2ccccc2)Oc2ccc(NC(=O)C3CC3)cc2C1=O | 0.5
COc1ccc([Si](C)(C)[C@@H]2[C@@H](CC(=O)N(CCO)Cc3ccccc3)O[C@]3(C(=O)N(C)c4ccccc43)[C@H]2C)cc1 | -0.4
CCCC(O)C#Cc1cnc2c(c1)C(=O)N([C@H](C)CO)C[C@H](C)[C@H](CN(C)Cc1cccc(C)c1)O2 (stereo not given in full) | 1.1
CNC[C@H]1OCCCC[C@@H](C)Oc2ccc(NC(=O)Nc3ccc(OC)cc3)cc2C(=O)N([C@@H](C)CO)C[C@@H]1C | 0.9
CC(C)NC(=O)N(C)C[C@@H]1Oc2ccc(N(C)C)cc2C(=O)N([C@@H](C)CO)C[C@H]1C | 2.1
CNC[C@@H]1Oc2ccc(NS(C)(=O)=O)cc2C(=O)N([C@@H](C)CO)C[C@H]1C | -0.5
Cc1noc(C)c1NC(=O)Nc1ccc2c(c1)C(=O)N([C@H](C)CO)C[C@@H](C)[C@H](CN(C)C(=O)NC1CCCCC1)O2 | 0.6
C[C@@H]1CN([C@H](C)CO)C(=O)c2cc(NC(=O)CCCN(C)C)ccc2O[C@@H]1CN(C)S(=O)(=O)c1ccc(Cl)cc1 | -0.4
C[C@H]1CN([C@@H](C)CO)C(=O)c2cc(NS(=O)(=O)c3cccs3)ccc2O[C@@H]1CN(C)C(=O)Nc1ccc(C(F)(F)F)cc1 | -0.4
COc1cc(Cl)c(/C=N/NC(=O)c2ccc(C(=O)NO)cc2)c(Cl)c1OC | -0.3
COc1ccc(S(=O)(=O)Nc2ccc3c(c2)CC(=O)N([C@@H](C)CO)C[C@@H](C)[C@H](CN(C)Cc2ccc(C(F)(F)F)cc2)O3)cc1 | -0.8
COc1ccc(S(=O)(=O)Nc2ccc3c(c2)CC(=O)N([C@H](C)CO)C[C@H](C)[C@H](CN(C)C(=O)Nc2c(C)noc2C)O3)cc1 | -0.8
C[C@@H]1CN([C@H](C)CO)C(=O)CCCn2cc(nn2)CO[C@@H]1CN(C)Cc1ccc(O)cc1 | 0.8
COc1ccc(NC(=O)N(C)C[C@@H]2Oc3ccc(NS(=O)(=O)c4ccc(Cl)cc4)cc3CC(=O)N([C@H](C)CO)C[C@@H]2C)cc1 | 0.2
Cc1ccc(S(=O)(=O)Nc2cccc3c2O[C@@H](CN(C)Cc2ccc(C(=O)O)cc2)[C@H](C)CN([C@@H](C)CO)C3=O)cc1 | 0.1
C[C@H](CO)N1C[C@H](C)[C@H](CN(C)S(=O)(=O)c2cccs2)OCCCC[C@H](C)Oc2ccc(NC(=O)CCC(F)(F)F)cc2C1=O | -0.3
COc1ccc(NC(=O)N(C)C[C@@H]2Oc3ccc(NS(=O)(=O)c4cccs4)cc3CC(=O)N([C@@H](C)CO)C[C@H]2C)cc1 | 0.3
CN(Cc1ccccc1)CC(O)CC(O)c1ccccc1 (stereo not given) | -0.6
C[C@@H]1CN([C@@H](C)CO)C(=O)c2cccc(NS(=O)(=O)c3cccs3)c2O[C@@H]1CN(C)Cc1ccc(C(=O)O)cc1 | -0.9
C[C@H]1CCCCO[C@@H](CN(C)C(=O)c2ccccc2)[C@@H](C)CN([C@@H](C)CO)C(=O)c2cc(NC(=O)CCC(F)(F)F)ccc2O1 | -0.6
C[C@H]1CN([C@@H](C)CO)C(=O)Cc2cc(NS(=O)(=O)c3ccc(Cl)cc3)ccc2O[C@@H]1CN(C)C(=O)NC1CCCCC1 | 0.1
CO[C@H]1O[C@H](CO)[C@@H](OC(=O)Nc2ccccc2)[C@H](OC(=O)Nc2ccccc2-c2ccccc2)[C@@H]1OC(=O)Nc1ccccc1-c1ccccc1 | -0.8
C[C@@H]1CN([C@@H](C)CO)C(=O)c2cc(NS(=O)(=O)c3ccc(F)cc3)ccc2O[C@@H]1CN(C)Cc1ccc(Cl)c(Cl)c1 | -1.4
COc1ccc([Si](C)(C)[C@@H]2[C@@H](CCO)O[C@]3(C(=O)N4c5c(cc(OC)cc53)C(C)=CC4(C)C)[C@H]2C)cc1 | 26.7*
C[C@H]1CN([C@@H](C)CO)C(=O)c2cccc(N(C)C)c2O[C@H]1CN(C)S(C)(=O)=O | 0.0
COc1ccc(S(=O)(=O)N(C)C[C@H]2Oc3ccc(NS(=O)(=O)c4cn(C)cn4)cc3CC(=O)N([C@H](C)CO)C[C@H]2C)cc1 | -0.6

5 structures already listed, arranged by count of non-hydrogen atoms, largest number first.
SMILES | A1 apoptosis 2
C[C@@H]1CCCCO[C@H](CN(C)Cc2ccncc2)[C@H](C)CN([C@@H](C)CO)C(=O)c2cc(NC(=O)Nc3cccc4ccccc34)ccc2O1 | 0.2
COc1ccc(CN(C)C[C@@H]2OCCCC[C@@H](C)Oc3ccc(NC(=O)Nc4c(C)noc4C)cc3C(=O)N([C@@H](C)CO)C[C@@H]2C)cc1 | -0.3
C[C@H]1CCCCO[C@@H](CN(C)C(=O)c2ccccc2)[C@@H](C)CN([C@@H](C)CO)C(=O)c2cc(NC(=O)CCC(F)(F)F)ccc2O1 | -0.6
C[C@@H]1CN([C@H](C)CO)C(=O)Cc2cc(NC(=O)c3ccncc3)ccc2O[C@@H]1CN(C)C(=O)Nc1ccc(F)cc1 | -0.1
CN(Cc1ccccc1)CC(O)CC(O)c1ccccc1 (stereo not given) | -0.6

Reprinted from above, 2 compounds:
SMILES | A1 apoptosis 2
C[C@H](CO)N1C[C@H](C)[C@H](CN(C)S(=O)(=O)c2cccs2)OCCCC[C@H](C)Oc2ccc(NC(=O)CCC(F)(F)F)cc2C1=O | -0.3
COc1ccc(NC(=O)N(C)C[C@@H]2Oc3ccc(NS(=O)(=O)c4cccs4)cc3CC(=O)N([C@@H](C)CO)C[C@H]2C)cc1 | 0.3

Carrying on.
SMILES | A1 apoptosis 2
COc1ccc(NC(=O)N(C)C[C@@H]2OCCCC[C@H](C)Oc3ccc(NS(=O)(=O)c4c(C)noc4C)cc3C(=O)N([C@@H](C)CO)C[C@H]2C)cc1 | 1.2
C[C@H](CO)N1C[C@H](C)[C@H](CN(C)S(=O)(=O)c2ccccc2)Oc2ccc(NC(=O)NC3CCCCC3)cc2CC1=O | -0.9
C[C@@H]1CN([C@H](C)CO)C(=O)c2cc(NC(=O)Nc3ccc(C(F)(F)F)cc3)ccc2O[C@@H](C)CCCCO[C@@H]1CN(C)Cc1ccc(C(=O)O)cc1 | 0.4
C[C@H]1CN([C@@H](C)CO)C(=O)c2cc(NC(=O)Cc3ccccc3)ccc2O[C@@H]1CN(C)Cc1ccc(Cl)c(Cl)c1 | -0.6
C[C@@H]1CN([C@H](C)CO)C(=O)c2cccc(NC(=O)c3ccncc3)c2O[C@H]1CN(C)Cc1ccc2c(c1)OCO2 | 0.6
C[C@H]1CN([C@@H](C)CO)C(=O)c2cc(NC(=O)C3CC3)ccc2O[C@H]1CN(C)C | 0.2
COc1ccc(S(=O)(=O)Nc2ccc3c(c2)C(=O)N([C@H](C)CO)C[C@@H](C)[C@H](CN(C)S(=O)(=O)c2cccs2)O3)cc1 | 0.4
COc1ccc(S(=O)(=O)Nc2ccc3c(c2)C(=O)N([C@@H](C)CO)C[C@H](C)[C@@H](CN(C)Cc2ccc(Cl)c(Cl)c2)OCCCC[C@@H](C)O3)cc1 | 0.0
COc1ccc(NC(=O)Nc2ccc3c(c2)CC(=O)N([C@H](C)CO)C[C@@H](C)[C@@H](CN(C)C(=O)Nc2ccccc2)O3)cc1 | -1.6

Assay outcomes: PubChem, Broad Institute

This is a subset. The share of hits here may be higher or lower than overall.
